Mtb growth = Mycobacterium tuberculosis H37Rv growth inhibition, putative kinase inhibitor library, confirmatory dose response (AID 2842) | M. tuberculosis H37Rv growth inhibition; higher % means a stronger effect; some inactives read as strong as hits | inhibition, % at 10 µg/mL; hits with a dose series show IC90 in µg/mL | 5.2% of 24,000 active;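 active = confirmed in a dose series; inconclusive = mostly over 85% at the one dose but not retested; inactive = below 85% or not confirmed; about a fifth of its hits are not listed in these tables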;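 also: bacteria incubated one week before Alamar blue readout; 0% = bacteria only wells and 100% = bacteria with high antibiotic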
Starred values were filed as active, the others as inactive; ? = inconclusive. Not all compounds are listed, so the mix of outcomes need not match the whole.

The first two records as a preview:
SMILES | Mtb growth
Cc1ccc(Cl)cc1-n1ncc2c(NNC(=O)c3ccccc3Cl)ncnc21 | 1%
COc1ccc(CC(=O)Nc2c(C(=O)Nc3ccc(F)c(Cl)c3)oc3ccccc23)cc1OC | 2%

All compounds of this part (from the top)
SMILES | Mtb growth
Cc1ccc(Cl)cc1-n1ncc2c(NNC(=O)c3ccccc3Cl)ncnc21 | 1%
COc1ccc(CC(=O)Nc2c(C(=O)Nc3ccc(F)c(Cl)c3)oc3ccccc23)cc1OC | 2%
COc1cccc(C(=O)Nc2nc3c(OC)cccc3s2)c1 | 11%
COc1ccc(NC(=O)Cn2ccn(-c3cccc4ccccc34)c(=O)c2=O)cc1Cl | -1%
Nn1c(SCC(=O)Nc2ccc(Cl)cc2)nnc(Cc2ccccc2)c1=O | -5%
O=C(CCc1ccccc1)Nc1nnc(-c2ccc3c(c2)CCCC3)o1 | 30µg/mL*
CCc1ccc(C(=O)c2cn(CC(=O)Nc3ccc(Cl)cc3)c3cc4c(cc3c2=O)OCCO4)cc1 | 14%
Cc1nc2sc(C(c3ccccc3F)N3CCN(CCO)CC3)c(O)n2n1 (stereo unspecified) | -5%
Cc1ccc(Cn2cc3c(-c4ccc(F)cc4)nnc-3c3cc4c(cc32)OCO4)cc1 | -10%
O=C(O)c1ccccc1SC/C=C/c1ccccc1 | -5%
CN(C)CCCN1C(=O)C(=O)/C(=C(/O)c2ccc3c(c2)OCCO3)C1c1ccncc1 (stereo unspecified) | 14%
CSc1ccc(CC(=O)Nc2ccc3c(c2)C(=O)NC3=O)cc1 | -10%
COc1ccc(CCNc2nccn(-c3ccccc3OC)c2=O)cc1OC | -2%
Cc1cc(NS(=O)(=O)c2ccc(NC(=O)NC3CCCCC3)cc2)no1 | -22%
Cc1ccnc(SCc2cc(=O)c(OC(=O)c3cccs3)co2)n1 | -9%
Cc1ccc(/C=N/NC(=O)CNC(=O)c2cccs2)o1 | -10%
Cc1ccc2cc(CCNC(=O)c3ccc([N+](=O)[O-])cc3)c(=O)[nH]c2c1C | -3%
N#C/C(=C\c1c(Oc2ccccc2F)nc2ccccn2c1=O)C(N)=O | 11µg/mL*
Cc1ccc(C(=O)Nc2c(N)nc(SCC(=O)Nc3cccc(Cl)c3)[nH]c2=O)cc1 | -3%
COc1ccc(N2CC(NC(=O)Nc3ccc(OC)c(OC)c3)CC2=O)cc1 (stereo unspecified) | -5%
Fc1ccc(-c2nnc3c4cc5c(cc4n(Cc4ccccc4)cc2-3)OCO5)cc1 | 6%
CCc1nnc(NC(=O)CSc2nc3c(c(=O)n2-c2ccc(C)cc2)SCC3)s1 | 11%
Cc1cccc(NC(=O)CSc2nncc(=O)n2N)c1 | -16%
CCC/C(=N\Nc1nc2c(c(=O)[nH]c(=O)n2C)n1CC(C)O)c1ccccc1 (stereo unspecified) | -2%
O=C(Cc1ccc(Cl)cc1)Nc1c(C(=O)Nc2ccc3c(c2)OCO3)oc2ccccc12 | 3%
Cc1nc2sc(C(c3ccc(Cl)c(Cl)c3)N3CCOCC3)c(O)n2n1 (stereo unspecified) | 13%
O=C(CN1C(=O)/C(=C/c2ccccc2)SC1=S)Nc1cccc(C(=O)O)c1 | -15%
O=C(CSc1ccc2nnc(-c3ccccc3)n2n1)Nc1ccc(F)cc1 | -4%
CN(Cc1ccccc1)C(=O)NC1CC(=O)N(c2ccc(Cl)cc2)C1 (stereo unspecified) | 23%
O=C(O)c1cccc(Cn2c(Cl)c(/C=N/NC(=O)c3ccncc3)sc2=O)c1 | ?

Quoted at random: 3 entries already listed
SMILES | Mtb growth
CCc1nnc(NC(=O)CSc2nc3c(c(=O)n2-c2ccc(C)cc2)SCC3)s1 | 11%
Cc1nc2sc(C(c3ccc(Cl)c(Cl)c3)N3CCOCC3)c(O)n2n1 (stereo unspecified) | 13%
Fc1ccc(-c2nnc3c4cc5c(cc4n(Cc4ccccc4)cc2-3)OCO5)cc1 | 6%

Next section
SMILES | Mtb growth
COc1ccc(NC(=O)c2sc3nc4c(cc3c2N)C(=O)CCC4)cc1 | -17%
Cc1cc(OC(=O)/C=C/c2ccccc2)c([N+](=O)[O-])c(=O)[nH]1 | -10%
Cc1ccnc(SCCn2c(N3CCN(C)CC3)nc3c2c(=O)[nH]c(=O)n3C)n1 | -7%
CCOC(=O)c1nn(-c2ccc(OC)cc2)c(=O)c2c(NC(=O)c3ccccc3Cl)scc12 | 9%
CCOC(=O)c1nn(-c2ccc(OC)cc2)c(=O)c2c(NC(=O)c3cc(C)cc(C)c3)scc12 | 1%
O=C(Nc1ccc(Cl)cc1Cl)c1cnc2n(c1=O)CCS2 | -1%
COC(=O)Cn1c(=NC(=O)CSCC(=O)Nc2cc(C)on2)sc2cc(C(=O)OC)ccc21 | 8%
CC(C)c1cc(-c2nc(-c3ccc(Cl)cc3)no2)n[nH]1 | 48%
O=C(Nc1c(C(=O)Nc2ccc(F)c(F)c2)oc2ccccc12)c1cc2ccccc2o1 | 11%
COc1ccc(-c2ccc3nnc(SCc4cccnc4)n3n2)cc1 | 5%
Cn1c(=O)[nH]c(=O)c2c1nc(N1CCN(Cc3c(Cl)cccc3Cl)CC1)n2Cc1ccccc1 | 15%
CC1C(=O)N2CCCc3cc(NC(=O)C(=O)NCCCc4ccccc4)cc1c32 (stereo unspecified) | 15%
CC(=O)Nc1nnc(-c2ccco2)o1 | ?
COc1ccc(NC(=O)c2oc3ccccc3c2NC(=O)c2ccc(S(=O)(=O)N3CCOCC3)cc2)cc1 | -3%
CCOc1cc(C(=O)NCCc2cc3ccc(OC)cc3[nH]c2=O)cc(OCC)c1OCC | 5%
COc1cc2c3nnc(-c4ccc(C)c(C)c4)c-3cn(Cc3ccccc3F)c2cc1OC | 20%
CC(C)c1ccc(NS(=O)(=O)c2c[nH]c(=O)[nH]c2=O)cc1 | -8%
Cn1c(Cn2c(=O)sc3ccccc32)nnc1SCc1c(F)cccc1Cl | 5%
CCOC(=O)c1nn(-c2ccc(OC)cc2)c(=O)c2c(NC(=O)c3cc(Cl)ccc3Cl)scc12 | 2%
O=C(Nc1nc2c(cc3c4c(cccc42)CC3)s1)c1cccc(N2C(=O)CCC2=O)c1 | 2%
CCC(=O)NCCc1nc2ccccc2n1Cc1ccc(C)cc1 | 10%
CC(=O)c1cc(C(=O)OCC(=O)Nc2ccccc2C(F)(F)F)c2ccccn12 | -8%
CC1CCc2sc(NC(=O)c3ccc(F)cc3)c(C#N)c2C1 (stereo unspecified) | 2%
O=C(NCCC1=CCCCC1)C(=O)Nc1ccc2c(c1)N(S(=O)(=O)c1cccs1)CCC2 | -14%
CCS(=O)(=O)c1ccc(C(=O)Nc2nnc(-c3cccs3)o2)cc1 | 47%
CN1CCN(C(CC(=O)Nc2cccc3ccccc23)C(=O)O)CC1 (stereo unspecified) | 2%
O=C(Nc1nnc(-c2cc(Cl)ccc2Cl)o1)C1=COCCO1 | 26µg/mL*
COc1cccc2sc(N3CCN(c4nc5ccccc5s4)CC3)nc12 | -1%
CC(=O)C(C)Sc1nc2c(c(=O)[nH]c(=O)n2C)n1Cc1cccc(C)c1 (stereo unspecified) | -6%
C=CCn1c(=NC(=O)c2ccc([N+](=O)[O-])s2)sc2cc(S(N)(=O)=O)ccc21 | <0.2µg/mL*
O=C(COc1ccc(Cl)cc1Cl)Nc1nnc2n1CCS2 | 0%
O=C(Nc1nc(-c2ccccn2)cs1)c1ccc(S(=O)(=O)N2CCCCC2)cc1 | ?
CN1C(=O)CC(Sc2ncccc2C(=O)O)C1=O (stereo unspecified) | 22%
O=C(CSc1nnc2ccc(-c3ccccc3)nn12)NCc1ccccc1Cl | -1%
CCC(Sc1ccc2nnc(-c3cccc(F)c3)n2n1)C(=O)OC (stereo unspecified) | 3%
CCOc1ccccc1C(=O)NC1CC(=O)N(c2ccccc2)C1 (stereo unspecified) | 2%
CSc1nc(N)c(NC(=O)c2ccc(C)cc2)c(=O)[nH]1 | -9%
CCOc1ccc(-n2c(=O)[nH]c3c(C(N)=O)nc(C4CCCCC4)nc32)cc1 | -12%
O=C(Nc1cc2c3c(c1)CCC(=O)N3CCC2)c1c(F)cccc1F | 11%
Cc1ccc(-n2nc3c(c2NC(=O)COc2ccc4ccccc4c2)CS(=O)C3)cc1 (stereo unspecified) | 6%
Cc1nn2c(=O)c3ccc(C(=O)O)cc3nc2s1 | -16%
Cc1cccc(OCC(=O)Nc2c(C(=O)Nc3ccc([N+](=O)[O-])cc3)oc3ccccc23)c1 | 6%
CC(C)n1c(CN2CCN(c3ccc(F)cc3)CC2)nc2c1c(=O)n(C)c(=O)n2C | -4%
O=C(Nc1nnc(SCc2ccccn2)s1)C1CC(=O)N(c2ccccc2)C1 (stereo unspecified) | 0%
O=C(NCCOc1cccc2ccccc12)c1ccncc1 | 11%
Clc1ccc(-c2nnc3ccc(SCc4ccccn4)nn23)cc1 | 63%
O=C(Nc1nnc(-c2cc(Cl)ccc2Cl)o1)C1CCCCC1 | 85%
O=C1c2ccccc2-c2nn(C(=O)c3ccccc3)c3cccc1c23 | -1%
Nc1nc(SCC(=O)NCc2ccco2)[nH]c(=O)c1NC(=O)c1ccco1 | -1%
CCCCN(C)S(=O)(=O)c1ccc(C(=O)Nc2sc3c(c2C#N)CCCCC3)cc1 | 5%

New compounds follow
SMILES | Mtb growth
CCOc1ccc(C(=O)Nc2cc3c4c(c2)CCC(=O)N4CCC3)cc1 | -1%
O=C(CSc1nnc2sc3ccccc3n12)c1ccc2c(c1)OCCO2 | -1%
CCCn1c(C)cn2c3c(=O)n(Cc4ccc(C)cc4)c(=O)n(C)c3nc12 | -3%
COc1ccc2nc(-c3ccc(C)c(NC(=O)c4cccc(OC)c4OC)c3)cn2n1 | -10%
CCOC(=O)c1nn(-c2ccccc2)c(=O)c2c(NC(=O)c3cc([N+](=O)[O-])ccc3Cl)scc12 | -5%
Cc1ccc(-n2ncc3c(NNC(=O)Cc4cccc5ccccc45)ncnc32)cc1C | -4%
CCOC(=O)CSC(C)C(=O)Nc1nnc(-c2ccccc2)s1 (stereo unspecified) | -3%
O=C(CSC1=Nc2cccnc2Nc2ccccc21)Nc1cccc(Cl)c1 | 22%
CCOc1ccc(C(=O)Nc2nnc(-c3ccncc3)o2)cc1 | 80%
Cc1sc2ncn(C(C)C(=O)O)c(=O)c2c1C (stereo unspecified) | -25%

4 entries from above, with each value named.
SMILES: Cc1ccc(-n2ncc3c(NNC(=O)Cc4cccc5ccccc45)ncnc32)cc1C
  Mtb growth: -4%

SMILES: CCOC(=O)CSC(C)C(=O)Nc1nnc(-c2ccccc2)s1 (stereo unspecified)
  Mtb growth: -3%

SMILES: O=C(CSC1=Nc2cccnc2Nc2ccccc21)Nc1cccc(Cl)c1
  Mtb growth: 22%

SMILES: CCOc1ccc(C(=O)Nc2nnc(-c3ccncc3)o2)cc1
  Mtb growth: 80%

Additional structures
SMILES | Mtb growth
COC(=O)Cn1c(=O)c2c(nc3n(-c4cccc(C)c4C)c(C)cn23)n(C)c1=O | 7%
CCCCOc1ccc(C(=O)Nc2nc3ccc4sc(C)nc4c3s2)cc1 | 2%
COc1ccc(C(=O)Nc2c(N)nc(SCc3ccccc3)[nH]c2=O)cc1OC | -12%
CC(C)c1ccc(C2C(C#N)=C(SCC(N)=O)NC3=C2C(=O)CCC3)cc1 (stereo unspecified) | 11%
CC(=O)c1cccc(N2C(=O)/C(=C3/C(=O)N(C)c4ccccc43)SC2=S)c1 | 3%
Cc1ccc(-c2nnc3c4cc5c(cc4n(Cc4ccc(F)cc4)cc2-3)OCO5)cc1C | 3%
O=[N+]([O-])c1ccc(C2SCCN2S(=O)(=O)c2ccc(Br)cc2)cc1 (stereo unspecified) | -4%
COc1cccc2c(=O)n(CC(=O)NC3CCCC3)ccc12 | 3%
COC(=O)CSCC(=O)Nc1nnc(-c2ccc(Br)cc2)s1 | 8%
COc1ccccc1NS(=O)(=O)c1cccc2c1C(=O)c1ccccc1C2=O | -12%

Shown as tab-separated lines: entries from further up
SMILES	Mtb growth
Cc1ccc2cc(CCNC(=O)c3ccc([N+](=O)[O-])cc3)c(=O)[nH]c2c1C	-3%
COc1ccc(CCNc2nccn(-c3ccccc3OC)c2=O)cc1OC	-2%
Nn1c(SCC(=O)Nc2ccc(Cl)cc2)nnc(Cc2ccccc2)c1=O	-5%
Fc1ccc(-c2nnc3c4cc5c(cc4n(Cc4ccccc4)cc2-3)OCO5)cc1	6%

Assay outcomes deposited in PubChem BioAssay by Southern Research Institute.
